# High-throughput results deposited in PubChem BioAssay by Broad Institute.
# Yeast UUG start – alters start codon recognition fidelity in yeast | AID 602363 | actives 0.13% (n = 350,000) | S. cerevisiae UUG-firefly luciferase reporter, luminescence/redox ratio | activity score, % at 18.7 µM;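 active means replicate mean at a twofold rise or more, about +100% in these data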;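 further: firefly luciferase made from a UUG start codon reports start codon fidelity; reporter light over untreated wells divided by growth signal over untreated wells; some hits fall short of that in this replicate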
# The depositor's hits bear a star. The list is partial. The share of hits here may be higher or lower than overall.
SMILES,Yeast UUG start
CN(C)C(=O)c1ccc(-c2ccc([C@@H]3[C@@H](CO)N4CCCCN(CCC(F)(F)F)C[C@@H]34)cc2)cc1,-2
COc1cccc(C(=O)N2C[C@@H]3[C@H](c4ccccc42)[C@H](CO)N3C(=O)c2ccc(F)cc2)c1,15
O=C(c1cccnc1)N1C[C@H]2[C@@H](c3ccccc31)[C@H](CO)N2C(=O)Nc1ccccc1,45
COc1ccc(CN(C)C[C@H]2Oc3c(NC(=O)NC4CCCCC4)cccc3C(=O)N([C@@H](C)CO)C[C@H]2C)cc1,-3
Cc1ccc(S(=O)(=O)Nc2ccc3c(c2)CC(=O)N([C@H](C)CO)C[C@H](C)[C@H](CN(C)Cc2ccccc2)O3)cc1,-3
C[C@H](CO)N1C[C@H](C)[C@H](CN(C)C(=O)Nc2ccc(C(F)(F)F)cc2)Oc2c(NS(=O)(=O)c3ccc(Cl)cc3)cccc2C1=O,-5
COc1ccc(NC(=O)N(C)C[C@@H]2Oc3ccc(NS(=O)(=O)c4cccs4)cc3C(=O)N([C@@H](C)CO)C[C@H]2C)cc1,1
CO[C@@H]1CN(C)C(=O)c2ccc(NC(=O)Nc3ccc(Cl)cc3)cc2OC[C@@H](C)N(C(=O)Nc2c(C)noc2C)C[C@H]1C,2
CN(C)CCCNC(=O)C[C@H]1CC[C@@H]2[C@@H](COc3ccc(NC(=O)C4CCC4)cc3C(=O)N2C)O1,-5
CCC(=O)N1[C@@H](CO)[C@@H](c2ccc(-c3cccc(F)c3)cc2)[C@@H]1CNC(C)=O,3
C[C@H]1CN([C@@H](C)CO)C(=O)c2cc(NC(=O)Nc3ccc(C(F)(F)F)cc3)ccc2O[C@@H]1CN(C)Cc1ccc(C(=O)O)cc1,0
C[C@H]1CN([C@@H](C)CO)C(=O)Cc2cc(NC(=O)NC3CCCCC3)ccc2O[C@H]1CN(C)S(=O)(=O)c1ccc(F)cc1,11
C[C@H]1CN([C@@H](C)CO)C(=O)c2cc(NS(=O)(=O)c3ccccc3)ccc2O[C@H]1CN(C)S(C)(=O)=O,-7
CO[C@H]1CN(C)C(=O)c2cc(NC(C)=O)ccc2OC[C@H](C)N(CCc2ccccc2)C[C@@H]1C,2
COC(=O)N(C)C[C@@H]1OCc2ccccc2-c2c(n(C)c3ccccc23)C(=O)N([C@@H](C)CO)C[C@H]1C,8
CO[C@H]1CN(C)C(=O)c2cc(NC(=O)NC3CCCCC3)ccc2OC[C@H](C)N(CC2CCOCC2)C[C@@H]1C,-10
Cc1ccc(S(=O)(=O)N(C)C[C@H]2Oc3ccc(NC(=O)Cn4cnnn4)cc3C(=O)N([C@H](C)CO)C[C@@H]2C)cc1,-1
CCN(C[C@@H]1[C@H](c2ccccc2)[C@H](CO)N1C(=O)COC)S(C)(=O)=O,-16
Cc1cccc(-c2ccc([C@H]3[C@H]4CN(C(=O)NC(C)C)CCCCN4[C@H]3CO)cc2)c1,0
Cn1cnc(S(=O)(=O)N2CC[C@@H]3[C@H](CO)Nc4ccc(-c5ccc(F)cc5)cc4[C@@H]32)c1,-17
CC=Cc1ccc2n(c1=O)C[C@H]1[C@H](CO)[C@@H](C(=O)NCCc3cn(C)cn3)[C@@H]2N1C(=O)C1CC1 (mixture of isomers),3
CC(=O)N1[C@@H](CO)[C@H](c2ccccc2)[C@@H]1CN(CC(C)C)C(=O)c1ccccn1,-11
O=C(Nc1ccccc1)N1C[C@H]2[C@@H](c3ccccc31)[C@H](CO)N2Cc1ccccc1,2
O=S(=O)(c1ccccc1)N1C[C@@H]2[C@H](c3ccccc31)[C@H](CO)N2Cc1ccc(F)cc1,11
C[C@H]1CN([C@@H](C)CO)C(=O)c2cc(NC(=O)Nc3ccc(F)cc3)ccc2O[C@@H]1CN(C)Cc1ccc(C(F)(F)F)cc1,3
# (next part)
SMILES,Yeast UUG start
C[C@H](CO)N1C[C@H](C)[C@H](CN(C)Cc2ccccc2)Oc2c(NS(=O)(=O)c3ccccc3)cccc2C1=O,-8
CO[C@H]1CN(C)C(=O)c2ccc(NS(C)(=O)=O)cc2OC[C@@H](C)N(C(=O)C2CC2)C[C@H]1C,-3
C[C@@H]1CN([C@H](C)CO)C(=O)c2cccc(NS(=O)(=O)c3cccs3)c2O[C@@H]1CN(C)C(=O)Nc1cccc2ccccc12,-1
C[C@@H]1CN([C@H](C)CO)C(=O)c2cccc(NS(=O)(=O)c3cccs3)c2O[C@H]1CN(C)Cc1ccc(C(=O)O)cc1,-4
C[C@H](CO)N1C[C@H](C)[C@@H](CN(C)S(=O)(=O)c2ccc(Cl)cc2)OCc2ccccc2-c2c(n(C)c3ccccc23)C1=O,-10
COCC(=O)N1CCCCN2[C@H](CO)[C@@H](c3ccc(-c4ccc(OC)cc4)cc3)[C@@H]2C1,-4
CN(C)C(=O)c1ccc(-c2ccc([C@H]3[C@@H](CO)N4CCCCN(C(=O)C5CCCC5)C[C@H]34)cc2)cc1,13
CC(C)NC(=O)N(C)C[C@H]1Oc2ccc(NC(=O)CCN3CCOCC3)cc2CC(=O)N([C@H](C)CO)C[C@H]1C,13
O=C(Nc1cc(F)ccc1F)N1CCCCN2[C@H](C1)[C@H](c1ccc(-c3cncnc3)cc1)[C@@H]2CO,-5
O=C(NC[C@H]1[C@@H](c2ccccc2)[C@@H](CO)N1C(=O)Cc1cccnc1)C1CCC1,-11
CCN(C[C@@H]1[C@@H](c2ccc(-c3cccnc3)cc2)[C@H](CO)N1C(C)=O)C(C)=O,-9
CC(C)NC(=O)N1C[C@H]2[C@@H](c3ccccc31)[C@H](CO)N2C(=O)Nc1ccc(F)cc1,8
CN(C)CC(=O)N1CCCCN2[C@H](CO)[C@@H](c3ccc(-c4cccc(C(=O)N(C)C)c4)cc3)[C@@H]2C1,-17
CCC(=O)N1C[C@H]2[C@@H](c3ccccc31)[C@@H](CO)N2CC1CCCC1,13
C[C@H]1CN([C@@H](C)CO)C(=O)c2cc(NC(=O)Cc3cn(C)c4ccccc34)ccc2O[C@@H]1CN(C)Cc1ccc(C(=O)O)cc1,-3
CN1C[C@H]2[C@@H](c3ccccc31)[C@@H](CO)N2C(=O)Nc1ccccc1,-8
Cc1ccc(S(=O)(=O)N(C)C[C@@H]2Oc3ccc(NC(=O)Cn4cnnn4)cc3C(=O)N([C@H](C)CO)C[C@@H]2C)cc1,-7
COc1ccc(S(=O)(=O)N(C)C[C@H]2Oc3ccc(NC(=O)Cc4cn(C)c5ccccc45)cc3C(=O)N([C@H](C)CO)C[C@@H]2C)cc1,-6
C/C=C/c1ccc([C@H]2[C@@H](CNC(=O)C3CC3)N(C(=O)CC)[C@H]2CO)cc1,-5
C[C@H](CO)N1C[C@H](C)[C@@H](CN(C)C)Oc2ccc(NS(=O)(=O)c3cccs3)cc2C1=O,-7
C[C@@H]1CN([C@@H](C)CO)C(=O)c2cccc(NC(=O)Nc3ccc(C(F)(F)F)cc3)c2O[C@@H]1CN(C)S(=O)(=O)c1cccs1,-12
COc1ccccc1C#Cc1ccc([C@@H]2[C@H](CO)N3CCCCN(S(C)(=O)=O)C[C@@H]23)cc1,-5
O=C(NC[C@H]1N[C@H](CO)[C@@H]1c1ccccc1)C1CCCC1,-10
CS(=O)(=O)N1CCCCN2[C@H](CO)[C@@H](c3ccc(C#Cc4ccccn4)cc3)[C@H]2C1,0
O=C(C[C@@H]1CC[C@H]2[C@@H](COC[C@@H](O)CN2Cc2cc(F)cc(F)c2)O1)NCc1cccc(F)c1,-11

# Shown as tab-separated lines: part of the list above.
SMILES	Yeast UUG start
C[C@H](CO)N1C[C@H](C)[C@@H](CN(C)C)Oc2ccc(NS(=O)(=O)c3cccs3)cc2C1=O	-7
O=C(Nc1cc(F)ccc1F)N1CCCCN2[C@H](C1)[C@H](c1ccc(-c3cncnc3)cc1)[C@@H]2CO	-5
CS(=O)(=O)N1CCCCN2[C@H](CO)[C@@H](c3ccc(C#Cc4ccccn4)cc3)[C@H]2C1	0
O=C(NC[C@H]1[C@@H](c2ccccc2)[C@@H](CO)N1C(=O)Cc1cccnc1)C1CCC1	-11
CC(C)NC(=O)N(C)C[C@H]1Oc2ccc(NC(=O)CCN3CCOCC3)cc2CC(=O)N([C@H](C)CO)C[C@H]1C	13

# New compounds follow
SMILES,Yeast UUG start
COc1ccc(NC(=O)N(C)C[C@@H]2Oc3ccc(NS(=O)(=O)c4cn(C)cn4)cc3C(=O)N([C@H](C)CO)C[C@@H]2C)cc1,6
CC(C)NC(=O)N1CC[C@@H]2[C@H]1c1cc(Br)ccc1N(C)[C@H]2CO,5
C[C@@H]1CN([C@H](C)CO)C(=O)c2cccc(NC(=O)Nc3ccc4c(c3)OCO4)c2O[C@H]1CN(C)C,-10
CNC[C@H]1Oc2ccc(NS(=O)(=O)c3ccc(Cl)cc3)cc2C(=O)N([C@H](C)CO)C[C@H]1C,-9
C[C@H]1CN([C@@H](C)CO)C(=O)c2cccc(NC(=O)Nc3cccc4ccccc34)c2O[C@@H]1CN(C)S(=O)(=O)c1cn(C)cn1,21
O=S(=O)(c1ccccc1)N1CCCCN2[C@@H](CO)[C@H](c3ccc(C#Cc4cccnc4)cc3)[C@@H]2C1,0
C[C@H]1CN([C@@H](C)CO)C(=O)c2ccccc2-c2ccccc2CO[C@H]1CN(C)C(=O)Nc1ccccc1,-2
C[C@H]1CN([C@@H](C)CO)C(=O)Cc2cc(NC(=O)Nc3ccccc3)ccc2O[C@@H]1CN(C)C(=O)NC1CCCCC1,1
C[C@@H]1CN([C@@H](C)CO)C(=O)c2cc(NC(=O)C3CCCCC3)ccc2O[C@@H]1CN(C)C(=O)Nc1ccccc1,3
O=C(c1cccnc1)N1CC[C@H]2[C@H](CO)Nc3ccc(-c4ccccc4)cc3[C@H]21,6
CCCNC(=O)N1[C@H](CO)[C@H](c2ccc(-c3ccccc3)cc2)[C@@H]1CNC(C)=O,2
COCC(=O)Nc1ccc2c(c1)OC[C@@H](C)N(Cc1ccncc1)C[C@@H](C)[C@@H](OC)CN(C)C2=O,-6
OC[C@H]1[C@H](c2ccc(C#Cc3ccccc3)cc2)[C@@H]2CN(Cc3cncnc3)CCCCN12,11
COc1cccc(S(=O)(=O)N2C[C@@H](O)COC[C@@H]3O[C@@H](CC(=O)N4CCN(C)CC4)CC[C@H]32)c1,7
O=C(C1CCCC1)N1CCCCN2[C@H](C1)[C@H](c1ccc(C#CC3CC3)cc1)[C@@H]2CO,9
CC(=O)NC[C@H]1[C@@H](c2ccc(-c3ccccc3)cc2)[C@H](CO)N1C(=O)C1CCC1,-2
OC[C@@H]1[C@H](c2ccc(-c3ccccc3F)cc2)[C@@H]2CN(Cc3cncnc3)CCCCN12,-2
O=C(C[C@H]1CC[C@H]2[C@@H](COC[C@H](O)CN2C(=O)Nc2cc(Cl)cc(Cl)c2)O1)N1CCCCC1,3
Cc1cccc(S(=O)(=O)N2CCCCN3[C@@H](CO)[C@H](c4ccc(C#CC(C)C)cc4)[C@@H]3C2)c1,11
C[C@H]1CN([C@@H](C)CO)C(=O)c2cc(NS(=O)(=O)c3ccc(Cl)cc3)ccc2O[C@@H]1CN(C)Cc1ccc(Oc2ccccc2)cc1,-2
COc1ccc(CN(C)C[C@H]2Oc3ccc(NC(=O)CCC(F)(F)F)cc3C(=O)N([C@H](C)CO)C[C@@H]2C)cc1,3
O=C(CC1CC1)N1CC[C@@H]2[C@@H](CO)Nc3ccc(-c4cccc(F)c4)cc3[C@@H]21,7
CC(C)N(C[C@H]1N[C@@H](CO)[C@H]1c1ccccc1)C(=O)c1ccccc1,8
CC(C)NC(=O)N(C)C[C@@H]1Oc2c(NC(=O)c3ccncc3)cccc2C(=O)N([C@H](C)CO)C[C@@H]1C,-15
O=C(C[C@H]1C[C@H]2c3cc(NC(=O)Nc4ccccc4F)ccc3O[C@H]2[C@@H](CO)O1)NCCc1ccccc1,-14
# Continued.
SMILES,Yeast UUG start
C[C@H](CO)N1C[C@H](C)[C@@H](CN(C)C)Oc2ccc(NC(=O)CCN3CCOCC3)cc2CC1=O,-5
CN1C(=O)c2cc(NC(=O)C3CCCC3)ccc2OC[C@H]2O[C@H](CC(=O)NCC(F)(F)F)CC[C@H]21,7
Cc1noc(C)c1S(=O)(=O)Nc1ccc2c(c1)C(=O)N([C@@H](C)CO)C[C@H](C)[C@H](CN(C)C)O2,-15
C[C@H]1CN([C@@H](C)CO)C(=O)c2cc(NC(=O)Nc3cccc4ccccc34)ccc2O[C@@H]1CN(C)CC1CCCCC1,-5
CC=Cc1ccc2n(c1=O)C[C@H]1[C@H](CO)[C@@H](C(=O)NCC)N(Cc3cccc(F)c3)[C@@H]21 (mixture of isomers),18
C[C@@H]1CN([C@@H](C)CO)C(=O)Cc2cc(NC(=O)C3CCCCC3)ccc2O[C@@H]1CN(C)C(=O)Nc1ccc2c(c1)OCO2,6
O=S(=O)(Cc1ccccc1)N1CCCCN2[C@H](CO)[C@H](c3ccc(-c4cncnc4)cc3)[C@H]2C1,5
C[C@H]1CN([C@@H](C)CO)C(=O)c2cc(NC(=O)Cc3cn(C)c4ccccc34)ccc2O[C@@H]1CN(C)C(=O)Nc1cccc2ccccc12,-5
CO[C@@H]1CN(C)C(=O)c2ccc(NC(=O)NC3CCCCC3)cc2OC[C@@H](C)N(C)C[C@H]1C,7
CCCC(=O)N1C[C@H]2[C@@H](c3ccccc31)[C@H](CO)N2C(=O)CC1CC1,-5
Cc1ccc(S(=O)(=O)N2C[C@@H](O)COC[C@@H]3O[C@H](CC(=O)NCCCN(C)C)CC[C@H]32)cc1,-14
COc1ccc(NC(=O)N2CCCCN3[C@H](C2)[C@H](c2ccc(C4=CCCCC4)cc2)[C@@H]3CO)cc1,9

# For reference, three of the compounds above:
SMILES,Yeast UUG start
CCCC(=O)N1C[C@H]2[C@@H](c3ccccc31)[C@H](CO)N2C(=O)CC1CC1,-5
Cc1ccc(S(=O)(=O)N2C[C@@H](O)COC[C@@H]3O[C@H](CC(=O)NCCCN(C)C)CC[C@H]32)cc1,-14
COc1ccc(NC(=O)N2CCCCN3[C@H](C2)[C@H](c2ccc(C4=CCCCC4)cc2)[C@@H]3CO)cc1,9
